rRNA inh HTS – inhibits bacterial ribosomal RNA function over humanized ribosomes | E. coli WT GFP vs humanized-ribosome RFP mutants, fluorescence, 24 h; hits give low values; DMSO median 0, no signal -100 | GFP signal change (wild-type ribosome), % (test concentration not listed) | 1.6% of 350,000 active | AID 720706;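 active = significant combined selectivity score with lowered wild-type GFP, culture density cut under 30%, mutant RFP and density less affected; inactive = any of these conditions unmet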; note: one replicate is shown; some compounds called inactive have numbers as strong as hits
AF4-AF9 inh – inhibitors of human MLL-AF4/AF9 interaction; AlphaScreen, biotin-AF4 peptide binding to FLAG-AF9; inhibition, % at 10 µM; P42568; 0.47% of 350,000 active; AID 651704;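 active = every replicate reaching a set inhibition limit, whatever the replicate mean, cut at about 25% in these data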;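 note: 0% = plate neutral control median and 100% = total signal loss; the record names both 10 and 1 µM as test concentration; the first replicate is given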
Target sequence (P42568 whole entry, looked up): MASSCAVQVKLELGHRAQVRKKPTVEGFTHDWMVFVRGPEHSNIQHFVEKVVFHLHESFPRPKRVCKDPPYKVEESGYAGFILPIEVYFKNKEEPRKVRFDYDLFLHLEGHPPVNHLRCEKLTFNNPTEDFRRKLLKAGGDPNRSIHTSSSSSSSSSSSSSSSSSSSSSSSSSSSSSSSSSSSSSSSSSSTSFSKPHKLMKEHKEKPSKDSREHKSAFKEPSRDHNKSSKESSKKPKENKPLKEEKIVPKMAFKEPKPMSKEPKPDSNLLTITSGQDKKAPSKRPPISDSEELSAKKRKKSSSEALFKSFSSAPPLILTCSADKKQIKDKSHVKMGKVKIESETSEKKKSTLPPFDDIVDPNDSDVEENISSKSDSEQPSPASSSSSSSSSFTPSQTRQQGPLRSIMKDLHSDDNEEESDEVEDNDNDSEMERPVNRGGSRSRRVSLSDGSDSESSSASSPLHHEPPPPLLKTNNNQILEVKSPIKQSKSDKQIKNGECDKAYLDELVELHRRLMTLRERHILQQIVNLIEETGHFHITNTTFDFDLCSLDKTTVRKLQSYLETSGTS
rRNA inh HTS OD600 – further read-out of rRNA inh HTS, marked with its call; OD600 change, %; measured here: OD600 growth;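 optical density of the mix in the first replicate; 0 = DMSO median and -100 = no signal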
rRNA inh HTS RFP – second read-out of rRNA inh HTS, no call of its own (marks repeat the call); RFP signal change, %; measured here: RFP humanized mutant strains;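 first replicate; 0 = DMSO median and -100 = no signal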
An asterisk follows results filed as active; & = joins results of further samples. Not all compounds are listed; rates above refer to the full screens.

Labels used below – A = rRNA inh HTS; B = rRNA inh HTS OD600; C = rRNA inh HTS RFP; D = AF4-AF9 inh
O=C(C[C@@H]1CC[C@@H]2[C@H](COC[C@H](O)CN2Cc2ccccc2)O1)NCCc1ccccc1
  A = -2 | B = -5 | C = -5.8 | D = -0.6
O=C(C[C@H]1C=C[C@@H](NC(=O)Cc2cccnc2)[C@H](CO)O1)Nc1ccc(-c2ccccc2)cc1
  A = 0 | B = -6 | C = -0.8 | D = -2.3
COc1ccc2c3c([nH]c2c1)[C@H](CO)N(C(=O)NC(C)C)CC31CN(Cc2ccc(F)cc2)C1
  A = -2 | B = -14 | C = -0.7 | D = 31*
CN1c2ccc(-c3cccc(F)c3)cc2[C@@H]2[C@@H](CCN2C(=O)c2cccc(F)c2)[C@@H]1CO
  A = -13 | B = -31 | C = 31 | D = 11
O=C(C[C@H]1CC[C@H]2[C@@H](COC[C@@H](O)CN2C(=O)c2ccncc2)O1)NCc1ccc(-c2ccccc2)cc1
  A = -4 | B = -15 | C = -0.4 | D = 0.5
O=C(C[C@H]1C[C@H]2c3cc(NC(=O)c4cccnc4)ccc3O[C@H]2[C@H](CO)O1)NCc1ccccc1F
  A = -4 | B = 1 | C = 1.0 | D = -0.8
CO[C@@H]1CN(C)C(=O)c2cc(NC(=O)C3CC3)ccc2OC[C@H](C)N(C(=O)Cc2ccccn2)C[C@H]1C
  A = 2 | B = 5 | C = 0.5 | D = 3.2
O=C(NC1CCCC1)[C@@H]1[C@@H](CO)[C@@H]2Cn3c(cccc3=O)[C@@H]2N1CC1CCOCC1
  A = 5 | B = 8 | C = -0.9 | D = -2.1
CO[C@H]1CN(C)C(=O)c2cc(NC(=O)c3ccc4c(c3)OCO4)ccc2OC[C@@H](C)NC[C@H]1C
  A = 1 | B = -2 | C = -1.1 | D = -0.3
N#C[C@@H]1[C@@H](c2ccc(-c3cccc(F)c3)cc2)[C@H](CO)N1c1nc(-c2ccccc2)cs1
  A = 2 | B = 4 | C = -3.0 | D = 1.0
O=C(c1cnccn1)N1CC(=O)N2[C@H](CO)[C@H](c3ccc(C#CC4CC4)cc3)[C@@H]2C1
  A = 4 | B = -2 | C = 0.1 | D = -2.2
CC=Cc1ccc2n(c1=O)C[C@H]1[C@H](CO)[C@@H](C(=O)N(C)C)N(CCC)[C@@H]21 (mixture of isomers)
  A = 3 | B = 17 | C = -4.4 | D = -0.3
COc1ccc2c3c(n(C)c2c1)[C@@H](CO)N(Cc1ccncc1)CC31CN(C(=O)Nc2cccc(F)c2)C1
  A = 3 | B = -8 | C = -1.5 | D = -4.3
C[C@@H]1CN([C@@H](C)CO)C(=O)c2cc(NS(=O)(=O)c3ccccc3)ccc2O[C@@H](C)CCCCO[C@H]1CN(C)Cc1ccccc1
  A = 1 | B = -6 | C = 2.4 | D = -3.0
CCC(=O)N1CC2(C1)CN(Cc1cccc(F)c1)[C@@H](CO)c1c2c2ccc(OC)cc2n1C
  A = -2 | B = -1 | C = -2.5 | D = 4.5
C[C@@H]1CN([C@H](C)CO)C(=O)Cc2cc(NS(=O)(=O)c3cn(C)cn3)ccc2O[C@H]1CN(C)Cc1ccc(C(F)(F)F)cc1
  A = 1 | B = -9 | C = 0.5 | D = -0.9
O=C(C[C@H]1C=C[C@@H](NS(=O)(=O)c2ccc(F)cc2)[C@@H](CO)O1)NCc1ccccc1F
  A = -1 | B = 4 | C = -1.5 | D = -8.6
O=C(NC[C@H]1N[C@H](CO)[C@@H]1c1ccc(C2=CCCC2)cc1)C1CCCCC1
  A = -43 | B = -70 | C = 10 | D = 2.0
CN(C)C(=O)c1ccc(-c2ccccc2[C@@H]2[C@@H](C#N)N(C(=O)C3CC3)[C@@H]2CO)cc1
  A = 0 | B = 5 | C = -1.2 | D = -14
CCCNC(=O)C[C@@H]1C[C@@H]2c3cc(NC(=O)C4CCC4)ccc3O[C@@H]2[C@@H](CO)O1
  A = 1 | B = 7 | C = -0.9 | D = 0.4
O=C1CN(S(=O)(=O)Cc2ccccc2)C[C@H]2[C@@H](c3ccc(C#CC4CC4)cc3)[C@H](CO)N12
  A = 7 | B = 1 | C = 17 | D = 3.0
CCC(=O)N1CC2(C1)[C@H](c1ccccc1)[C@H](CO)N2CC1CCCC1
  A = -8 | B = -17 | C = -3.0 | D = -1.1
Cc1cccc(-c2ccc(C3[C@H]4CNC[C@@H]3N4S(=O)(=O)c3ccccc3C)cc2)c1 (stereo partly specified)
  A = -52&-62 | B = -68&-77 | C = -7.3&-14 | D = 1.0&6.2
COc1cccc(C#Cc2ccc([C@H]3[C@H](CO)N4C(=O)CN(C(=O)C5CC5)C[C@@H]34)cc2)c1
  A = -3 | B = -11 | C = -0.5 | D = -4.8
N#C[C@@H]1[C@H](c2ccc(C#CC3CCCC3)cc2)[C@@H](CO)N1C(=O)Cc1ccccn1
  A = 2 | B = -4 | C = 0.5 | D = 2.6

As a working copy, part of the list above.
Labels used below – A = rRNA inh HTS; B = rRNA inh HTS OD600; C = rRNA inh HTS RFP; D = AF4-AF9 inh
O=C(C[C@@H]1CC[C@@H]2[C@H](COC[C@H](O)CN2Cc2ccccc2)O1)NCCc1ccccc1
  A = -2 | B = -5 | C = -5.8 | D = -0.6
O=C(C[C@H]1C=C[C@@H](NC(=O)Cc2cccnc2)[C@H](CO)O1)Nc1ccc(-c2ccccc2)cc1
  A = 0 | B = -6 | C = -0.8 | D = -2.3
COc1ccc2c3c([nH]c2c1)[C@H](CO)N(C(=O)NC(C)C)CC31CN(Cc2ccc(F)cc2)C1
  A = -2 | B = -14 | C = -0.7 | D = 31*
CN1c2ccc(-c3cccc(F)c3)cc2[C@@H]2[C@@H](CCN2C(=O)c2cccc(F)c2)[C@@H]1CO
  A = -13 | B = -31 | C = 31 | D = 11
O=C(C[C@H]1CC[C@H]2[C@@H](COC[C@@H](O)CN2C(=O)c2ccncc2)O1)NCc1ccc(-c2ccccc2)cc1
  A = -4 | B = -15 | C = -0.4 | D = 0.5
O=C(C[C@H]1C[C@H]2c3cc(NC(=O)c4cccnc4)ccc3O[C@H]2[C@H](CO)O1)NCc1ccccc1F
  A = -4 | B = 1 | C = 1.0 | D = -0.8
CO[C@@H]1CN(C)C(=O)c2cc(NC(=O)C3CC3)ccc2OC[C@H](C)N(C(=O)Cc2ccccn2)C[C@H]1C
  A = 2 | B = 5 | C = 0.5 | D = 3.2

(list continues)
Labels used below – A = rRNA inh HTS; B = rRNA inh HTS OD600; C = rRNA inh HTS RFP; D = AF4-AF9 inh
COc1cc(CN2[C@@H]3CNC[C@H]2C3c2ccc(-c3ccccc3)cc2)cc(OC)c1 (stereo partly specified)
  A = 2&6 | B = -17&8 | C = -2.4&2.9 | D = 6.0&12
CCCC#Cc1ccc([C@H]2[C@H](CO)N3C(=O)CN(C(=O)c4ccncc4)C[C@@H]23)cc1
  A = 5 | B = 3 | C = -0.7 | D = -4.1
CC(C)C#Cc1ccc([C@H]2[C@H]3CN(C(=O)Cc4ccccc4)CC(=O)N3[C@H]2CO)cc1
  A = -1 | B = 6 | C = -0.4 | D = 1.0
O=C(C1CCOCC1)N1CC(=O)N2[C@@H](CO)[C@H](c3ccc(-c4cccnc4)cc3)[C@@H]2C1
  A = 4 | B = 6 | C = -1.1 | D = -2.8
CCS(=O)(=O)N1CC2(C1)[C@H](c1ccccc1)[C@@H](CO)N2C(=O)C1CCC1
  A = -1 | B = 4 | C = -1.3 | D = -4.0
C/C=C/c1ccc([C@@H]2[C@@H](CO)N3C(=O)CN(C(=O)c4ccncc4)C[C@H]23)cc1
  A = 4 | B = 9 | C = -0.6 | D = -1.9
C[C@@H](NC(=O)[C@H]1[C@H](CO)[C@H]2Cn3c(ccc(-c4cccc(F)c4)c3=O)[C@H]2N1C)c1ccccc1
  A = 0 | B = -10 | C = 0.7 | D = -1.9
COCCNC(=O)[C@H]1[C@H](CO)[C@H]2Cn3c(ccc(C4=CCCCC4)c3=O)[C@@H]1N2C(=O)C1CCCC1
  A = -1 | B = -3 | C = -3.8 | D = -7.8
O=C(c1cnccn1)N1CC(=O)N2[C@H](C1)[C@@H](c1ccc(-c3ccccc3)cc1)[C@@H]2CO
  A = -1 | B = -12 | C = -5.1 | D = -2.0
COCC(=O)N1CC(=O)N2[C@@H](CO)[C@H](c3ccc(C#Cc4cccc(OC)c4)cc3)[C@@H]2C1
  A = 2 | B = -3 | C = 3.0 | D = -1.7
O=C(NC1CCCCC1)[C@H]1[C@H](CO)[C@H]2Cn3c(cccc3=O)[C@@H]1N2CC1CCCC1
  A = 1 | B = 14 | C = 1.9 | D = -2.1
O=C(NC1CCCC1)N1CC(=O)N2[C@H](CO)[C@@H](c3ccc(/C=C/c4ccccc4)cc3)[C@H]2C1
  A = -16 | B = -50 | C = 30 | D = 7.8
